VDR inhibitor: inhibitors of human vitamin D receptor. P11473. VDR-SRC2-3 peptide fluorescence polarization, 2 h. Potency, µM, for the others: max response, negative = inhibition, actives largely listed as inhibitors. 0.93% of 400,000 active; active = well fitted inhibition curve with a large enough effect; inconclusive = small, poorly fitted or top-dose-only effect, or another doubt; inactive = no such curve, though single readings can be large or run the other way; also: series mostly up to about 120 µM
Target sequence (P11473 whole entry, looked up): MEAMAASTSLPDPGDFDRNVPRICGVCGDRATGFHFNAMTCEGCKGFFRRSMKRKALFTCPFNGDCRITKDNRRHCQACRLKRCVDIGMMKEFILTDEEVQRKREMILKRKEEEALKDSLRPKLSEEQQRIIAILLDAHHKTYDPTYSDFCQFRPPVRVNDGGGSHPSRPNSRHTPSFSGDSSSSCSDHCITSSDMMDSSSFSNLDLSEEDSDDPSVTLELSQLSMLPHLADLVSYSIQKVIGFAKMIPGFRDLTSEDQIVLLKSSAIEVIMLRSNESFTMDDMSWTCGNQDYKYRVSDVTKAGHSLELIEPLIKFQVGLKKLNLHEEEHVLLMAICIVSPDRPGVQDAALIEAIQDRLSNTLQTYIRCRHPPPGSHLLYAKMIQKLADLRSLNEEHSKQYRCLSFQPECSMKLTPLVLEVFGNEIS
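Two reagent solutions held at 4 deg C in the dark were dispensed, compounds pinned at 23 nl, and the mixture incubated 2 h at room temperature. Read-out: fluorescence polarization of VDR–SRC2-3 peptide binding.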
An asterisk follows results filed as active; ? = inconclusive; & = joins results of further samples. % is scaled to controls: 0 for no effect and ±100 for the full control effect; potency is read from the fitted curve at half-maximal effect. An excerpt, so the mix of outcomes need not match the whole.

item	VDR inhibitor	Structure
1	-21%	Cn1c(=O)c2c(nc(Sc3ncnn3CC(=O)NC3CCCCC3)n2C)n(C)c1=O
2	-1%	C/C(=N\NC(=O)C1(C)NC(C)(C)Cc2ccccc21)c1ccccc1 (configuration not stated)
3	-2%	CCOc1ccc(C(CC(=O)O)NC(=O)c2ccco2)cc1 (configuration not stated)
4	-10%	C[C@@H]1NC(=O)N[C@@H]1CCCCCC(=O)O
5	-9%	CC(=O)c1ccc(NC(=O)C2CC(=O)Nc3nc4ccccc4n32)cc1 (configuration not stated)
6	-1%	CCCCN1C(=O)c2ccc(C(=O)OCC(=O)NCCc3ccc(S(N)(=O)=O)cc3)cc2C1=O
7	-3%	Cc1cccc(C)c1NS(=O)(=O)c1ccc(-c2ccc(=O)[nH]n2)o1
8	-12%	COC(=O)c1ccc(/C=N\N2CCN(c3ccccc3)CC2)cc1
9	-11%	Clc1ccc(C2[C@H]3CN(Cc4ccc(-c5ccccc5)cc4)[C@H](c4ccccc4)C34CC2(c2ccccc2)C4)cn1 (some centres not stated)
10	-2%	Cc1nc2c(C)cccc2cc1C(=O)N/N=C/c1ccc(N(C)C)cc1
11	6%	COc1ccccc1NC(=O)Cn1cc(C(=O)c2ccncc2)c(=O)c2cc(C)ccc21
12	-3%	COc1cccc(C(=O)Nc2ccc(C(=O)OCc3cc(=O)n4cc(C)sc4n3)cc2)c1
13	-9%	O=C(N/N=C/C1CC=CCC1)c1cc2ccccc2cc1O (configuration not stated)
14	9%	COc1ccc(C(=O)OCC(=O)Nc2ccc(Cl)cn2)cc1
15	-10%	CSCCC(C(=O)NC1=NCCS1)N1C(=O)c2ccccc2C1=O (configuration not stated)
16	-24%	CN1CC=C2C(C#N)=C(N)C(C#N)(C#N)[C@H](c3cccc(Cl)c3)C2C1 (some centres not stated)
17	5%	Cc1cc(C)c(S(=O)(=O)N2CCCC(C(=O)NCc3ccncc3)C2)c(C)c1 (configuration not stated)
18	-15%	O=c1oc2c(O)cccc2cc1-c1nc2ccccc2[nH]1
19	-11%	COc1ccc(CN2CN(C(C)C)CSC2=S)cc1
20	-21%	COc1cccc(/C=C/c2n[nH]c(=O)c(C#N)c2C)c1
21	-1%	CCCCOc1ccc(C(=O)OCC(=O)N2CCCCCC2)cc1
22	-9%	CC(C)(C)c1cc(C(=O)O)n(Cc2ccc(Cl)cc2Cl)n1
23	0%	COc1cccc(-c2nc(S(=O)(=O)c3ccccc3)c(NCc3ccccc3)o2)c1
24	-3%	Cc1cc(C)cc(NC(=O)COC(=O)CCc2ccc(S(=O)(=O)N3CCOCC3)cc2)c1
25	-13%	CNc1nc(Sc2ccc(C)cc2)cc(C(F)(F)F)n1
26	15%	COC(=O)c1cc(C(=O)NCc2ccc3c(c2)OCO3)cc([N+](=O)[O-])c1
27	6%	O=C(Nc1cccc(F)c1)Nc1cccc(Cl)c1
28	-1%	CC(NS(=O)(=O)c1ccc2c(c1)OCCO2)c1ccccc1 (configuration not stated)
29	4%	COc1ccc(S(=O)(=O)N(CC(=O)Nc2cc(C)ccc2OC)Cc2ccccc2)cc1
30	-16%	COCCCN(C(=O)c1ccco1)c1nc(-c2ccc(OC)cc2)cs1
31	3%	CCOc1ccccc1NC(=O)Cn1c(=O)oc2cc(Cl)ccc21
32	-5%	Cc1ccc(/C=N/NC(=O)CSc2nc3ccccc3s2)o1
33	?	CCOC(=O)c1sc(=S)n(-c2ccccc2)c1NC(C)=O
34	3%	COC(=O)c1ccc(NC(=O)c2ccc3nsnc3c2)cc1
35	15%	COc1ccc(-c2noc(-c3ccccc3C(=O)Nc3cccc(OC)c3)n2)cc1
36	7%	O=C(Nc1ccccc1N1CCN(C(=O)c2ccc(Cl)cc2)CC1)c1cccc(F)c1
37	-8%	COc1ccc(C2CC(=O)c3c([nH]c(C(=O)OC(C)C)c3C)C2)cc1OC (configuration not stated)
38	2%	Cc1[nH]c(=O)[nH]c(=O)c1N1CCOCC1
39	8%	COc1ccc(NC(=O)CCNC(=O)C2CCN(S(=O)(=O)c3ccc(OC)cc3)CC2)cc1
40	4%	CC(C)C(=O)N1CCC(Cc2ccccc2)CC1
41	19%	COC(=O)C1CCN(C(=O)Nc2ccccc2)CC1
42	-23%	Cc1cccc(-c2cc3c(N=O)c4ccccc4c-3n[nH]2)c1
43	-13%	O=S(=O)(O)c1cccnc1SCc1ccccc1
44	12%	Cc1cccc(NC(=O)CCNC(=O)c2ccccc2Cl)n1
45	-8%	COc1ccc(Br)cc1CNC(=O)c1nn(-c2ccc(C)cc2)c(=O)c2c1c1ccccc1n2C
46	0%	CC(=O)N1c2ccc(S(=O)(=O)N3CCC(C(=O)N4CCN(c5ccccc5)CC4)CC3)cc2CC1C (configuration not stated)
47	9%	O=C(NCC1COc2ccccc2O1)C1CCCN(S(=O)(=O)c2cccc3nsnc23)C1 (configuration not stated)
48	-1%	COc1ccc(NC(=S)NNC(=O)C(C)n2nc(C)c([N+](=O)[O-])c2C)cc1 (configuration not stated)
49	15%	Cc1ccc(-c2nnn(CC(=O)NC(=O)NC3CCCCC3)n2)cc1
50	5%	CCN1CCCC1CNS(=O)(=O)c1ccc(F)c(Cl)c1 (configuration not stated)

Next part:
item	VDR inhibitor	Structure
51	-2%	N/C(=N\OC(=O)CCCOc1ccccc1)c1cccc([N+](=O)[O-])c1
52	3%	CCN(C(=O)COC(=O)Cc1coc2cc(C)ccc12)c1c(N)n(Cc2ccccc2)c(=O)[nH]c1=O
53	?	N#CC1=C(S)N=C(N)C(c2nc(-c3ccccc3)cs2)C12CCCC2 (configuration not stated)
54	0%	Cc1ccc(Oc2ncccc2/C=N/O)cc1
55	-11%	COc1ccc([N+](=O)[O-])cc1N(CC(O)CN1CCOCC1)S(=O)(=O)c1ccccc1 (configuration not stated)
56	15%	CCOC(=O)c1c(C)[nH]c(CCC(=O)Nc2c(Cl)cc(OC)cc2OC)c1C
57	23%	CCc1ccc(C2c3c(-c4ccccc4O)n[nH]c3C(=O)N2Cc2ccncc2)cc1 (configuration not stated)
58	-2%	CCCCNC(=O)[C@H]1N2C(=O)c3c(ccc(OC)c3OC)C2SC1(C)C (some centres not stated)
59	7%	CCN(CC)S(=O)(=O)c1ccc(C(=O)NC2=C(C(=O)OC)SCC2)cc1
60	21%	O=C(Cn1cnc2c(nnn2-c2ccccc2)c1=O)NCC1CCCO1 (configuration not stated)
61	4%&2%	Cc1ccc(NC(=O)CCN2C(=O)c3ccccc3Sc3ncccc32)cc1
62	12%&-6%	CCOc1ccc(S(=O)(=O)c2c[nH]c3ccccc3c2=O)cc1
63	-1%	COc1ccc(C2CC(c3ccccc3)Nc3nc(NC(=O)c4cccs4)nn32)cc1 (configuration not stated)
64	-8%	S=c1[nH]nc(-c2cc(-c3ccccc3)n[nH]2)n1/N=C/c1ccc(Cl)cc1
65	6%	CCOC(=O)c1cc(OC(=O)c2cc(OC)cc(OC)c2)n(-c2ccccc2)n1
66	4%	Cc1cccc(C(=O)NC2(C(F)(F)F)N=C(c3ccccc3)N(C3CCCCC3)C2=O)c1 (configuration not stated)
67	7%	Cc1ccc(Cl)cc1N1CCN(C(=O)CN2C(=O)COc3ccc(S(=O)(=O)N4CCC(C)CC4)cc32)CC1
68	10%&-9%&14%&-10%	Cc1ccc(S(=O)(=O)NC(=O)NN2CCCCCC2)cc1
69	-7%	OC[C@@H]1O[C@H](OC2[C@@H](O)[C@@H](O)[C@@H](O)O[C@@H]2CO)[C@H](O)[C@@H](O)[C@@H]1OC1O[C@H](CO)[C@@H](O)[C@H](O)[C@@H]1O (some centres not stated)
70	?	c1ccc2c(-c3[nH]ncc3CNCCCn3ncc4ccccc43)cccc2c1
71	-15%	Cc1cccc(NC(=O)Cn2c(O)c(N=NC(N)=S)c3ccccc32)c1
72	-9%	CCCCC1NC(=S)N(C2CCCCC2)C1=O (configuration not stated)
73	7%	CCc1nc2c(c(=O)[nH]1)C1(CCCC1)Cc1ccccc1-2
74	-27%	CCN1C(=NCc2ccc(OC)cc2)N[C@@H](CCc2ccccc2)[C@H](C(=O)NCc2ccc(OC)cc2)[C@H]1C
75	14%	O=C(O)C1=NN(c2c(F)c(F)cc(F)c2F)C(=O)CC1
76	4%	O=C(Nc1nc(-c2ccccn2)cs1)C1CC(=O)N(c2ccc3c(c2)OCCO3)C1 (configuration not stated)
77	?	CN(CC(=O)Nc1ccccc1C(F)(F)F)Cc1c(O)ccc2ccccc12
78	8%	O=C(NCCc1cccc(Cl)c1)c1ccc(OC2CCN(Cc3ccccn3)CC2)cc1
79	-2%	O=C(CNc1ccccc1N1CCCC1=O)Nc1cc(C(F)(F)F)ccc1-n1cncn1
80	-4%	Cc1ccc(NC(=O)C2CCN(S(=O)(=O)c3ccc4c(c3)NC(=O)C(C)S4)CC2)cc1C (configuration not stated)
81	4%	CCOc1cccc(Oc2ncccc2C(=O)/C(C#N)=C/N(C)C)c1
82	-3%	Cc1ccc(OCc2n[nH]c(=S)n2-c2ccccc2)cc1C
83	1%	c1cncc(CNc2ncncc2-c2ccc3c(c2)OCO3)c1
84	5%	COc1ccc(Cl)cc1NC(=O)COC(=O)c1ccc(Cl)nc1
85	-14%	CC(=O)Oc1ccc2c(=O)c(-c3nc4ccccc4s3)coc2c1
86	8%	COc1ccc(Cc2nnn(CC(=O)O)n2)cc1
87	-6%	NS(=O)(=O)c1ccc(S(=O)(=O)N2CCN(C3CCCC3)CC2)cc1
88	-15%	O=C(/C=C(/c1ccc(Cl)cc1)n1cncn1)c1ccccc1
89	-3%	COc1ccc(CNc2ccccc2C(=O)NCc2ccccc2)cc1COc1ccc(NC(C)=O)cc1
90	8%	Cc1ccc(C)c(Cn2c(C(C)O)nc3ccccc32)c1 (configuration not stated)
91	-25%	CCOC(=O)C1=C(COC(=O)CNC(=O)c2ccc(Cl)cc2Cl)NC(=O)NC1C (configuration not stated)
92	-16%	CCC(C)NCCOCCOc1ccc(Cl)cc1Br (configuration not stated)
93	-4%	CCOCCCNC(=O)C1c2ccccc2C(=O)N2CCc3ccccc3C12 (configuration not stated)
94	-9%	CCc1ccc(Sc2cc(C(=O)NCCCOC(C)C)c3ccccc3n2)cc1
95	-4%	COc1ccc(CNC(=O)[C@H](C)N2C(=O)N3CCc4c([nH]c5ccc(OC)cc45)[C@@]3(C)C2=O)cc1
96	13%	CCOCCCNC(=O)C(c1ccc(C)cc1)N(Cc1cccs1)C(=O)CNC(C)=O (configuration not stated)
97	-15%	CC(C)N=C(NS(=O)(=O)c1cccs1)c1ccccc1
98	-21%	CC(OC(=O)c1cccc(S(=O)(=O)N2CCN(C)CC2)c1)C(=O)Nc1ccc(C(N)=O)cc1 (configuration not stated)
99	-2%	O=C(CN1C(=O)NC2(CCCCC2)C1=O)N(Cc1ccco1)Cc1cccs1
100	-9%	CCSc1nnc(NC(=O)C(CC)(C(F)(F)F)C(F)(F)F)s1

More structures follow:
item	VDR inhibitor	Structure
101	-13%	CCOc1c(OC)cccc1C1CC(=O)Nc2cc3c(cc21)OCCO3 (configuration not stated)
102	10%	COc1ccc2nc(NC(=O)CN3C(=O)NC4(CCCC4)C3=O)sc2c1
103	4%	COc1ccc(CN(Cc2ccncc2)C(=O)CCC(=O)O)cc1
104	?	CC1=NN(c2ccccc2)C(=O)/C1=C\c1cn(CCC#N)nc1-c1ccc(Cl)cc1
105	-3%	O=C1CCCN1CN(C(=O)c1ccc2c(c1)OCO2)c1ccc(F)cc1
106	?	COc1ccc(C(=O)OCC(=O)Nc2cccc(S(=O)(=O)N3CCCCCC3)c2)cc1[N+](=O)[O-]
107	4%	COc1ccc(NN=Nc2ccc([N+](=O)[O-])cc2)cc1
108	14%	CC1(C)NC(=O)N(CCSc2ccc(Cl)cc2)C1=O
109	-11%	COC(=O)c1ccc(NC(=O)CC2Nc3cc(C)c(C)cc3NC2=O)cc1 (configuration not stated)
110	-3%	CN(CC(=O)Nc1cccc(F)c1)C(=O)c1cc2c(s1)CCCCC2
111	10%	COc1ccc(NC(=O)C(Sc2nnc(-c3ccncc3)n2-c2ccccc2C)c2ccccc2)cc1Cl (configuration not stated)
112	?	Cc1ccc(Cl)cc1C1=CC(=O)C[C@H](c2ccc(F)cc2)C1
113	-18%	CC1CN(C(=O)CCC(=O)NCc2ccc(Cl)cc2)c2ccccc2O1 (configuration not stated)
